RanGTP-Impb inh – inhibitors of RanGTP-importin-beta interaction, primary screen, biochemical, FRET, CFP-Ran, YFP-importin-beta, homogeneous; Ran GTPase (GTP-bound) - importin-beta complex; cell-free CFP-Ran/YFP-importin-beta FRET ratio; inhibition, % (test concentration not listed); 300,000 compounds, 1.1% hits;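 active = most replicates above 15%; inconclusive = exactly half above 15%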;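 note: 0% = DMSO wells and 100% = Ran loaded with GDP instead of GTP; wells of about 40 µL received 100 nL stock; the first replicate is given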
Vif A3G – inhibitors of Vif binding to APOBEC3G peptide, primary screen, biochemical, TR-FRET, GST-Vif 1-94, biotin-A3G peptide, dose response retest (AID 1117319) | Virion infectivity factor (Human immunodeficiency virus type 1 group M subtype B (isolate … | TR-FRET GST-Vif / biotin-A3G peptide binding; higher % means a stronger effect; test concentration not given here; strong numbers were not always called active | inhibition, %, or IC50 in µM where a hit was titrated | 260,000 compounds, 0.57% hits;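 active = above the screen mean plus three standard deviations and confirmed in dose response; inconclusive = results disagree or hit not tested in dose response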;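 note: Vif residues 1-94 fused to GST binding biotinylated APOBEC3G peptide 110-148; 0% = full assay without inhibitor and 100% = GST in place of GST-Vif; retest series ran down from 100 µM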
ALR inh – inhibitors of human ALR sulfhydryl oxidase, primary screen, biochemical, H2O2 detection, HRP-luminol luminescence, single point. purified ALR, DTT oxidation. inhibition, % (no concentration beside the values). 290,000 compounds, 3.8% hits;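 active = mean and each replicate at 75% or more; inconclusive = only one of the two met; inactive = neither met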;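 note: stock transfer was 7.5 nL into about 7.5 µL; 0% = neutral wells and 100% = wells with inactivated enzyme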
Target sequence (P55789 whole entry, looked up): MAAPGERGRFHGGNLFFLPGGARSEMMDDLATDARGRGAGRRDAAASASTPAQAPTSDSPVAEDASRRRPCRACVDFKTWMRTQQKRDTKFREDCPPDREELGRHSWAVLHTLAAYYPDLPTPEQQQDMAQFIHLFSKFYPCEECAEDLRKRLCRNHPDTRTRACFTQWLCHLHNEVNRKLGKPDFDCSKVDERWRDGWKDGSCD
B2AR ag – beta2AR agonists driving receptor internalization, primary screen, cell-based, FAP fluorogen, flow cytometry; Am2.2-beta2AR cells; reference of the scale not given here; response, % (no concentration beside the values); AID 504454, 2011; 340,000 compounds, 0.43% hits;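 active = response above a set limit, near 3 SD of response in nonfluorescent compounds, cut at about 42% in these data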;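 note: stock transfer was 100 nL into about 11 µL; a reference agonist was the positive control; negative values mostly stem from fluorescent compounds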
Target sequence (P07550 whole entry, looked up): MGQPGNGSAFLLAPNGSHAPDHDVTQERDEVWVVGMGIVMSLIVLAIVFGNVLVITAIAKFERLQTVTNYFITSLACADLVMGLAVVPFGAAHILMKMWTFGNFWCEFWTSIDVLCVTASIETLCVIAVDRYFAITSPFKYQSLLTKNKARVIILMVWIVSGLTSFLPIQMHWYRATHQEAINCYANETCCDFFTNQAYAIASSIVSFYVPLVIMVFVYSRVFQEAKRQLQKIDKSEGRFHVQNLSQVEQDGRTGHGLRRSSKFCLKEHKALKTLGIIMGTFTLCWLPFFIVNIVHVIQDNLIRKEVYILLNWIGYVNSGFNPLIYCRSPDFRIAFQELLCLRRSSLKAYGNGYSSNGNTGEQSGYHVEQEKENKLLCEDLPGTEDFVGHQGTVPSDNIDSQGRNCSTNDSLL
LANA-H2B inh – blockers of LANA interaction with H2A/H2B – biochemical, FP readout, HTS, primary screen; cell-free LANA-H2A/H2B peptide, fluorescence polarization; 320,000 compounds, 0.6% hits; Protein LANA1 (Human herpesvirus 8 type P (isolate GK18)), Q9QR71; inhibition, % (concentration not given with the values); in the data active = inhibition mostly above about 10%, no sharp cut-off; inactive = mostly below about 6.7%;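 note: stock transfer was 7.5 nL into about 10 µL; 0% = median of vehicle wells and 100% = median of positive control wells; one replicate is shown; the record names a cut of 25% in any replicate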
HNF4A DNA FP – change in binding of human HNF4A to DNA, primary screen, biochemical, fluorescence polarization, FITC-DNA; Hepatocyte nuclear factor 4-alpha (Homo sapiens), P41235; 1 h; activity change, % at 10 µM; 360,000 compounds, 0.3% hits; AID 1224865, 2016; in the data active = activity change above about 30%, passing the limit was not always enough;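 note: controls were the assay level and a saturating level of protein; the project sought stronger binding though the title names inhibitors; some compounds called inactive have numbers as strong as hits; positive values seem to mean higher polarization but the record does not say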
Target sequence (P41235 whole entry, looked up): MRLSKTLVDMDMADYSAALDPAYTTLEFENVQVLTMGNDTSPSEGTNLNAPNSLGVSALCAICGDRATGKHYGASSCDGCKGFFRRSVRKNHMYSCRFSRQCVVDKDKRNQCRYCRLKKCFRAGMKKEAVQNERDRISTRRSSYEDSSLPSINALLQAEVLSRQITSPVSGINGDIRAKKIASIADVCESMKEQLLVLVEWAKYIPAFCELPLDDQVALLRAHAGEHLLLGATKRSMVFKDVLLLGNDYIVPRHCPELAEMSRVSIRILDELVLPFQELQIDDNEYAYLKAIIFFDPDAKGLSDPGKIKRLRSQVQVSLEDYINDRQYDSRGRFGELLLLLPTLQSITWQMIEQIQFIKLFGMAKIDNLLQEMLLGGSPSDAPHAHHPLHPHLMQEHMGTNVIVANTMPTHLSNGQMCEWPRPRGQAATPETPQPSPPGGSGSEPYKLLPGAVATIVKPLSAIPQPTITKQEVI
Calb FLC – C. albicans growth inhibition with fluconazole, primary screen, CaCi-2 strain, Alamar Blue fluorescence; C. albicans CaCi-2 (fluconazole-resistant clinical isolate) + fluconazole, 48 h; growth inhibition, % (concentration not given with the values); 300,000 compounds, 0.57% hits; AID 1979, 2009;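 active = most replicates above 75%; inconclusive = exactly half above 75%; inactive = most below 75%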;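 note: all wells also contain fluconazole at 8 µg/ml as a sub-toxic cotreatment; 0% = median of DMSO wells and 100% = median of geldanamycin control wells; wells of about 8 µL received 7.5 nL stock; the first replicate is given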
Numbers without * were called inactive; ? = inconclusive; . = not tested or not shown; & = joins results of further samples.

SMILES | RanGTP-Impb inh | Vif A3G | ALR inh | B2AR ag | LANA-H2B inh | HNF4A DNA FP | Calb FLC
c1ccc(-c2csc3ncn4cnnc4c23)cc1 | 6.4 | -2% | -18 | 1 | 1.3 | -2.7 | 24
COc1ccccc1C(=O)Nc1ccc(S(=O)(=O)N2CCCCC2c2cccnc2)cc1 (centres undefined) | 2.7 | -14% | -8 | -16 | -1.8 | 2.0 | 0
C=CCn1c(N)cc(=O)nc1SCC(=O)Nc1ccccc1C(N)=O | -0.9 | 2% | 0 | -4 | -2.6 | -1.2 | -12
COCc1nnc(NS(=O)(=O)c2ccccc2)s1 | 0.9 | 4% | -3 | 0 | -4.9 | 2.4 | -2
CN(Cc1nccn1C)C(=O)CC1C(=O)NCCN1CC(c1ccccc1)c1ccccc1 (centres undefined) | -0.6 | 0% | 9 | -2 | -2.6 | 1.8 | -5
O=C(CN1C(=O)COc2ccc(S(=O)(=O)N3CCOCC3)cc21)NCc1ccccn1 | -0.2 | . | -6 | -2 | 3.9 | 2.1 | 1
Cc1cc(NC(=O)COC(=O)c2cccc(OCc3ccccc3)c2)no1 | -0.8 | 0% | 7 | -11 | 2.4 | 2.1 | 21
COc1ccc(CCN2C(=NC(=O)C(C)C)SC3CS(=O)(=O)CC32)cc1OC (centres undefined) | 0.3 | . | -9 | -4 | -1.3 | -0.3 | 1
N=C(c1cccc([N+](=O)[O-])c1)N1CCCCCC1 | -1.5 | 73% | -2 | 4 | -0.9 | 8.8 | -4
Cc1ccc(CNC(=O)CSc2ccc(-c3cccs3)nn2)cc1 | 0.0 | . | . | -4 | . | 4.2 | 22
O=C(CNC1CCCCC1)Nc1ccc(Cl)cc1 | -2.1 | . | 1 | -3 | -0.2 | 1.7 | 1
Cc1cnn(-c2cc(N/N=C/c3ccccc3F)ncn2)c1 | -6.0 | 0% | 4 | 1 | -7.1 | -0.9 | -1
C/C(=N\NC(=O)C1CC1)c1ccc(OC(F)F)cc1 | 1.0 | . | . | -17 | -2.6 | 3.0 | 0
COc1cc2c(cc1OC)CN(C(=O)C(CCSC)NS(=O)(=O)c1ccc(C)cc1)CC2 (centres undefined) | -2.6 | -3% | -9 | 5 | 1.3 | -3.0 | -11
CCOC(=O)c1[nH]c2ccc(C)cc2c1N | -7.7 | 20% | 62 | 12 | -13 | -0.7 | 65
CC1CCN(S(=O)(=O)c2ccc(NC(=O)CN3C(=O)NC(C)(c4ccccc4)C3=O)cc2)CC1 (centres undefined) | 2.4 | -2% | -20 | 0 | -4.6 | 1.9 | -2
Cc1cccc(N2CCN(C(=O)C3CC(=O)N(C4CCCC4)C3)CC2)c1C (centres undefined) | -4.8 | . | -3 | 1 | -2.6 | 0.7 | -5
Cc1cc(NC(=O)CS(=O)(=O)c2cn(Cc3ccccc3Cl)c3ccccc23)no1 | -1.5 | 17% | -1 | 3 | 3.7 | -4.2 | 16
O=C(CC(c1ccccc1)c1cc(Cl)ccc1O)NCCN1CCOCC1 (centres undefined) | 0.1 | . | 5 | -6 | -0.3 | -1.8 | -9
Cc1ccccc1Nc1nccc(N(C)C)c1C#N | 2.1 | 22% | -14 | 11 | -5.5 | -0.9 | -11
Cc1ccc(NC(=O)CN(C)C(=O)COc2ccc(C(=O)c3ccc(F)cc3)cc2)cc1 | 0.7 | . | -3 | -7 | -1.7 | 0.3 | 17
CC(=O)Nc1ccc(NC(=O)C(C)OC(=O)c2ccc(C)s2)cc1 (centres undefined) | 11 | . | -11 | -1 | -5.5 | 6.1 | 3
COc1cc(NS(=O)(=O)c2ccc(Br)s2)cc(OC)c1 | -3.1 | 2% | -10 | 12 | -6.5 | 8.0 | 5
O=C(CSc1nc2ccccc2c(=O)[nH]1)Nc1ccccc1C(F)(F)F | 1.0 | . | -2 | 7 | -1.2 | 8.5 | .
Cc1onc(-c2ccc(Cl)cc2Cl)c1C(=O)/C=C/N(C)C | -0.6 | 15% | 4 | -1 | -2.5 | -0.9 | 13
Additional entries
SMILES | RanGTP-Impb inh | Vif A3G | ALR inh | B2AR ag | LANA-H2B inh | HNF4A DNA FP | Calb FLC
CN(C)c1nc(N)nc(CSc2nc3cc(Cl)ccc3o2)n1 | -0.9 | 8% | -1 | -5 | -0.4 | 8.5 | 28
COc1ccccc1C(=O)NCc1ccc2c(c1)OCO2 | -1.4 | 0% | -8 | -4 | 0.0 | 229 | -2
Cc1cccc(C(=O)Nc2cccc(C(=O)Nc3cc(C)ccn3)c2)c1 | -0.9 | . | -1 | -1 | -4.0 | 0.2 | 3
CN(C)CCCN1C(=O)C(=O)/C(=C(/O)c2ccncc2)C1c1cccnc1 (centres undefined) | -1.4 | 0%&-4% | . | 7 | . | -3.0 | -2
CCOC(=O)CN1CCS(=O)(=O)CC1 | 4.0 | -3% | -2 | 2 | -3.5 | -4.1 | 0
O=C(COC(=O)c1cccs1)NCCc1ccc(F)cc1 | . | -1% | . | 0 | . | 1.3 | .
COc1ccc(CC2(CO)CCN(C/C=C/c3ccccc3OC)CC2)cc1 | . | ? | -13 | 4 | -5.0 | 6.1 | -24
Cc1ccc(NC(=O)c2cccc(S(=O)(=O)NCc3ccccc3)c2)nc1 | 2.5 | . | -3 | -13 | -2.6 | -3.1 | -2
Cc1ncc[nH]1 | . | . | -3 | -2 | -35 | 2.7 | .
O=C(COC(=O)COc1ccc(Br)cc1)NC1CCCCCC1 | . | . | 1 | 1 | -3.5 | -2.6 | .
CCOC(=O)C1CCCN(S(=O)(=O)CCNC(=O)c2ccc(F)cc2)C1 (centres undefined) | -2.3 | -1% | 0 | 8 | -4.4 | 2.6 | -1
COC(=O)c1nn(C23CC4CC(CC(C4)C2)C3)c2c1C(=O)N(c1ccc(Br)cc1)C2=O | 4.7 | 0% | -1 | 2 | 2.6 | -1.2 | ?
CCCCN(C(=O)C(C)Oc1cccc(Cl)c1)c1c(N)n(CCC)c(=O)[nH]c1=O (centres undefined) | 0.1 | 2% | 0 | -5 | 3.0 | 2.5 | 7
Cc1ccccc1C(=O)Nc1ccc2c(C#N)c3nc4ccccc4nc3n2c1 | . | ? | 12 | 12 | 28* | -31 | .
O=C(N/N=C/c1ccccc1[N+](=O)[O-])C(=O)N1CCCC1 | -5.5 | -2% | -8 | -2 | -1.1 | -0.9 | -15
Cc1ccc(CCNC(=O)C2CC(c3ccccc3C(F)(F)F)=NO2)cc1 (centres undefined) | -0.2 | -3% | -21 | -3 | 2.7 | 3.5 | 0
CC(=O)CC1=NC(C)(C)Cc2ccccc21 | 2.9 | -8% | -1 | 0 | 0.2 | 0.9 | 25
COc1ccc2ccccc2c1/C=N/NC(=O)c1cccc(Br)c1 | 3.3 | 28% | -8 | -1 | 6.8 | 4.1 | 16
Cc1ccc2cc(NC(=O)c3cccc(F)c3)ccc2n1 | 0.7 | ? | 1 | 0 | -1.5 | -2.8 | -8
COC(=O)C1=C(C)N(c2ccc(Cl)cc2)/C(=C/c2cccs2)C1=O | -2.1 | . | -2 | -10 | 2.6 | -2.3 | -12
O=C(Nc1nc(-c2ccccc2)cs1)C1CCCCN1S(=O)(=O)c1ccccc1 (centres undefined) | -1.4 | 21%&-2% | -10 | -5 | -13 | -3.3 | -7
Cc1ccc(-c2cc(C(=O)N3CCN(C(=O)c4ccco4)CC3)no2)cc1 | -1.8 | -7% | -2 | 0 | -0.4 | -3.7 | 15
Cc1ccc(-c2nc(SCC(=O)NCC3CCCO3)c(-c3ccccc3)[nH]2)cc1 (centres undefined) | -2.8 | -2% | 38 | 3 | 14 | 3.4 | 0
CN1CCN(C(=O)C2CCN(S(=O)(=O)c3ccc4c(c3)oc(=O)n4C)CC2)CC1 | . | 3% | -14 | -11 | -1.5 | -0.4 | .
O=C(/C=C/c1ccccc1)Nc1cc(NC(=O)/C=C/c2ccccc2)cc(C(=O)O)c1 | -10 | 1% | 5 | -1 | 1.7 | -4.1 | 5
Going on with the list:
SMILES | RanGTP-Impb inh | Vif A3G | ALR inh | B2AR ag | LANA-H2B inh | HNF4A DNA FP | Calb FLC
CCOc1cc(/C=N/NC(=S)Nc2ccccc2C(F)(F)F)ccc1OCC(=O)N1CCOCC1 | 1.0 | ? | 7 | 25 | 2.8 | 1.7 | 1
CN(CCCNC(=O)CCc1cn(C)c2ccccc12)C1CCCCC1 | 1.4 | -1% | -6 | -4 | 5.7 | -3.2 | -3
Cc1ccc([N+](=O)[O-])cc1NC1OC(CO)C(O)C1O (centres undefined) | -8.9 | 5% | 1 | -6 | -0.3 | -2.6 | 0
CC(C)[C@H](NC(N)=O)C(=O)Nc1ccc(OCc2ccccc2)cc1 | -0.6 | -4% | -4 | 6 | 0.6 | -8.9 | 10
CCCC(=O)Nc1nnc(SCC(=O)NC2CC2)s1 | 2.0 | 0% | 1 | 9 | -0.5 | 1.1 | -6
O=C1N[C@@H](Cc2ccccc2)[C@@H](c2ccco2)O1 | -6.1 | 1% | 4 | 3 | 4.9 | -1.4 | -6
O=C(Cc1ccc([N+](=O)[O-])cc1)NNC(=O)c1ccc2c(c1)OCO2 | . | 4% | 0 | -2 | -0.8 | 0.0 | 113*
COC(=O)COc1ccc(-c2nn(C)c(=O)c3ccccc23)cc1 | 1.1 | ? | -4 | 9 | -3.4 | 0.0 | 3
O=c1oc2c(-c3ccc([N+](=O)[O-])cc3)cc(O)cc2s1 | 6.7 | 5% | -6 | 8 | 0.5 | 1.3 | ?
COc1ccc(OC)c(CNC(=O)Cc2c(C(=O)O)[nH]c3ccc(Cl)cc23)c1 | 3.7 | 30% | 2 | 3 | -0.9 | -2.0 | 2
C=CCN(c1ccccc1)S(=O)(=O)c1cccc(C(=O)N2CCN(c3ncccn3)CC2)c1 | . | ? | -2 | -3 | -1.8 | -0.1 | .
Nc1nonc1C(=O)N/N=C/c1ccc(-c2cccc(C(=O)O)c2)o1 | -3.4 | . | . | . | 5.3 | . | 2
COc1ccc(-c2nc3cc([N+](=O)[O-])ccc3o2)cc1OC | 1.0 | . | -11 | 1 | 0.2 | -3.9 | 0
CCOC(=O)C1(CCCc2ccccc2)CCN(Cc2cn(CC)nc2C)CC1 | 0.9 | 3% | -3 | 1 | 0.4 | 1.5 | 11
CCCC(C)c1nc(C(N)=O)c2[nH]c(=O)n(-c3ccc(OC)cc3OC)c2n1 (centres undefined) | -1.5 | -8% | 2 | -1 | 4.4 | 1.3 | -5
COCc1cc(C)nc(SCC(=O)Nc2ccc3[nH]c(=O)[nH]c3c2)c1C#N | 2.2 | . | -5 | -4 | -1.3 | 3.0 | 5
O=C(O)C1CC(=O)N(CCc2ccc(F)cc2)C1 (centres undefined) | 3.9 | 4% | -2 | 4 | -0.9 | -3.6 | 12
CCOc1ccc(-n2c(C)nc3cc(C(=O)NCc4ccco4)ccc32)cc1 | 1.3 | 7% | -3 | 5 | -5.4 | 0.8 | 2
COc1ccc(S(=O)(=O)N2CCCCCC2)cc1C(=O)NCc1ccco1 | . | 8% | 3 | 3 | 3.2 | -1.5 | .
O=Cc1c(-c2ccccc2)nc2ccccn12 | 5.6 | . | 2 | -13 | 8.7 | -5.9 | 29
c1ccc(OCCCCN2CCOCC2)cc1 | 1.2 | 16% | . | 7 | . | 1.6 | -23

Pulled one by one from the list above:
SMILES | RanGTP-Impb inh | Vif A3G | ALR inh | B2AR ag | LANA-H2B inh | HNF4A DNA FP | Calb FLC
Cc1cc(NC(=O)COC(=O)c2cccc(OCc3ccccc3)c2)no1 | -0.8 | 0% | 7 | -11 | 2.4 | 2.1 | 21
Cc1cc(NC(=O)CS(=O)(=O)c2cn(Cc3ccccc3Cl)c3ccccc23)no1 | -1.5 | 17% | -1 | 3 | 3.7 | -4.2 | 16

Source: PubChem (several laboratories)
